High-throughput results as filed in PubChem BioAssay.
SARS PLP yeast: inhibitors of SARS-CoV papain-like protease in yeast; S. cerevisiae expressing SARS-CoV PLpro, growth rescue; control for the full effect not named in the record; Potency, µM (top dose mostly 32.9 µM), for the others: at the highest dose activity, positive = growth rescue; actives 0.19% (n = 330,000); AID 485353; active means well fitted rising curve with a large enough effect; inconclusive means small, poorly fitted or top-dose-only effect; inactive means no such curve, though single readings can be large or run the other way; note: 0% is about no effect; nearly all actives have a fitted effect of over 55% in size; growth read by luminescence after 48 h
RE007 growth inh: less growth of the S. pombe RE007 Vpr strain; S. pombe RE007 Vpr strain, BacTiter-Glo ATP luminescence, 24 h; control for the full effect not named in the record; Potency, µM (doses to about 92.2 µM), inactives show at the highest dose activity change, negative = less growth; actives 0.21% (n = 360,000); active = well fitted falling curve with a large enough effect; inconclusive = small, poorly fitted or top-dose-only effect; inactive = no such curve, though single readings can be large or run the other way;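 note: % is set by controls: 0 for no effect and ±100 for the full control effect; nearly all actives have a fitted effect of over 50% in size; the assay follows cell death caused by Vpr and the record does not say whether a fall means rescue or toxicity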
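Fission yeast strain RE007, carrying one chromosomally integrated HIV-1 vpr copy, was seeded at OD 0.01 in PMG+AL medium with 23 nL pinned compound. After 24 h at 30 °C and 99% humidity, viability was read by BacTiter-Glo luminescence.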
Cruzain inh Det: inhibitors of Trypanosoma cruzi cruzain with detergent; P25779; Potency, µM, without a hit: max response, negative = inhibition, usual class: inhibitors; actives 0.43% (n = 200,000); purified cruzain, Z-FR-AMC fluorescence, 0.01% Triton;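 note: plate controls were neutral wells for no effect and buffer without enzyme for full effect; nearly all actives have a fitted effect of over 40% in size; top concentration of the series not given in the record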
Target sequence (P25779 123-467 limits assumed): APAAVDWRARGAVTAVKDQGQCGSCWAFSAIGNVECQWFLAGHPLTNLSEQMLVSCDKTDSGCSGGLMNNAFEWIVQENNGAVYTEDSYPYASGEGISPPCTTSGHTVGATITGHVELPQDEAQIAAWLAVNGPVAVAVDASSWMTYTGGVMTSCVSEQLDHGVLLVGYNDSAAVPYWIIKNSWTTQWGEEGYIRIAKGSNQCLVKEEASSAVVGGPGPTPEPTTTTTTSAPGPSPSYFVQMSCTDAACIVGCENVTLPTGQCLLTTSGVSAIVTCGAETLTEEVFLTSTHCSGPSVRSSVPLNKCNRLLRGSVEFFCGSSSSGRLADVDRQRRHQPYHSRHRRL
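Purified cruzain (1.5 nM final) was preincubated with compounds for 15 min at room temperature in 100 mM sodium acetate pH 5.5, 5 mM DTT, 0.01% Triton X-100. Reaction started with 2 uM Z-FR-AMC; AMC fluorescence change over 60 s gave activity.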
MARV entry inh: inhibitors of Marburg virus binding or cell entry; Marburg virus pseudotyped entry inhibition, cell reporter; control for the full effect not named in the record; about a third of the inactives were read at about 46 µM; Potency, µM (doses to about 37.8 µM), for the others: top-dose activity change, negative = inhibition, usual class: inhibitors; actives 1.8% (n = 300,000); active = well fitted inhibition curve with a large enough effect; inconclusive = small, poorly fitted or top-dose-only effect, or effect the other way; inactive = flat fitted curve, though single readings scatter; tested in HEK293 cells; about a fifth of its hits are not listed in these tables; note: % is set by controls: 0 for no effect and ±100 for the full control effect; luciferase read-out
Cruzain noTriton: cruzain (T. cruzi) inhibition without detergent | actives 2.3% (n = 200,000) | P25779 | purified cruzain, Z-FR-AMC fluorescence, no detergent | Potency, µM, without a hit: max response, negative = inhibition, most hits filed as inhibitors | AID 1476;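 note: plate controls were enzyme without inhibitor for no effect and buffer without enzyme for full effect; nearly all actives have a fitted effect of over 40% in size; top concentration of the series not given in the record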
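Purified cruzain at 1.5 nM, pre-incubated 15 min with compound at room temperature in 100 mM sodium acetate pH 5.5, 5 mM DTT, 0.00005% Triton X-100. Reaction started with 2 uM Z-FR-AMC; AMC fluorescence increase over 60 s gives rate.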
LASV entry inh: blocks Lassa virus binding to or entry into cells. Lassa virus pseudotype entry inhibition, cell reporter; control for the full effect not named in the record. Potency, µM (highest dose often 37.9 µM), for inactives: top-dose activity change, negative = inhibition, most hits filed as inhibitors. actives 1.2% (n = 300,000); active means well fitted inhibition curve with a large enough effect; inconclusive means small, poorly fitted or top-dose-only effect, or effect the other way; inactive means flat fitted curve, though single readings scatter; tested in HEK293 cells; note: % is set by controls: 0 for no effect and ±100 for the full control effect; nearly all actives have a fitted effect of over 50% in size; luciferase read-out
NS1 inh: blocks influenza NS1 protein function. actives 0.4% (n = 270,000). Potency, µM (doses to about 46.1 µM), inactives show at the top dose activity, positive = more growth. S. cerevisiae slowed by influenza A NS1, growth recovery by OD600; active means well fitted rising curve with a large enough effect; inconclusive means small, poorly fitted or top-dose-only effect; inactive means no such curve, though single readings can be large or run the other way; note: nearly all actives have a fitted effect of over 50% in size
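S. cerevisiae expressing influenza A NS1, grown in glucose, washed, then diluted 1:100 into pH 6.0 -URA galactose medium with 23 nl compound. Growth recovery read as OD600; NS1-free strain serves as control.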
StopGo reporter: lowers the luciferase signal of an FMDV 2A StopGo reporter | actives 1.2% (n = 410,000) | human cells with a luciferase reporter of 2A StopGo recoding; control for the full effect not named in the record | AID 1159524 | Potency, µM (top dose mostly 57.9 µM), inactives show at the top dose signal change, negative = less light; active = well fitted falling curve with a large enough effect; inconclusive = small, poorly fitted or top-dose-only effect; inactive = no such curve, though single readings can be large or run the other way; tested in HEK293T cells; note: % is set by controls: 0 for no effect and ±100 for the full control effect; nearly all actives have a fitted effect of over 45% in size; luciferase light after 4 h
* = called active by the depositor; u = inconclusive; x = no result given; [ ] = dose if it differs, or a comment. Unless noted, calls come from the whole dose curve; as a rule, active = well fitted curve in the direction sought with a large enough effect; inconclusive = small, poorly fitted or top-dose-only effect, or another doubt; inactive = no such curve, though single readings can be large; an effect the other way counts as inactive or inconclusive. Potency is the fitted concentration of half-maximal effect.

SMILES	SARS PLP yeast	RE007 growth inh	Cruzain inh Det	MARV entry inh	Cruzain noTriton	LASV entry inh	NS1 inh	StopGo reporter
Cc1ccnc(NS(=O)(=O)c2ccc(NC(=O)c3ccc(S(=O)(=O)N4CC(C)OC(C)C4)cc3)cc2)n1 (stereo not given)	12.3%	-8.6%	-4.5%	27.9%	u	-1.0%	-13.1%	7.3%
COc1ccc(N2CCN(C(=O)c3ccc4c(c3)N(Cc3cccc(Cl)c3)C(=O)c3ccccc3S4(=O)=O)CC2)cc1	x	x	-1.6%	x	-26.9%	-15.1%[46.1 µM]	x	-11.7%
CN(C(=O)Nc1ccccc1)C1CCCCC1	0.2%	-11.7%	x	7.5%	x	17.2%	0.3%	37.0%[activator]
CC(C)(C)[C@@H]1C=C(C(=O)NC2CC2)O[C@H](OCc2ccc(CO)cc2)C1	-2.0%	11.6%	x	x	x	x	-3.1%	-20.6%
CN(C)S(=O)(=O)c1ccc(S(=O)(=O)N2CCCC(C(=O)NC3CCCC3)C2)cc1 (stereo not given)	0.8%	0.8%	x	8.7%[46.1 µM]	x	x	17.4%	-19.5%
Cc1cc(C)c2c(CC(=O)Nc3nccs3)coc2c1	1.1%	41.2%	3.1%	-20.9%	-9.6%	u	-4.7%	-2.8%
Nc1cc(N)nc(SCCOc2ccccc2F)n1	-27.6%	4.7%	-9.0%	u	-1.6%	11.6%	0.9%	46.6%[activator]
CN(C)S(=O)(=O)c1cccc(-c2nn(-c3ccccc3)cc2/C=C2\SC(=S)NC2=O)c1	18.7%	12.1%	-12.9%	22.4µM*	16.0%	u	x	u
CCOc1cc2[nH]c(=S)n(Cc3ccc(C(=O)NCCN(CC)CC)cc3)c(=O)c2cc1OCC	-2.9%	-10.1%	x	10µM*	x	9.8%[46.1 µM]	-3.6%	7.9%
CC1=C(C(=O)OCC2CCCO2)C(c2ccsc2)C2=C(CCCC2=O)N1 (stereo not given)	-1.7%	3.9%	x	2.7%[46.1 µM]	x	-44.4%	x	-18.0%

2 of these compounds, reformatted:
Every second line gives: SARS PLP yeast | RE007 growth inh | Cruzain inh Det | MARV entry inh | Cruzain noTriton | LASV entry inh | NS1 inh | StopGo reporter
> CN(C(=O)Nc1ccccc1)C1CCCCC1
 : 0.2% | -11.7% | x | 7.5% | x | 17.2% | 0.3% | 37.0%[activator]
> CC(C)(C)[C@@H]1C=C(C(=O)NC2CC2)O[C@H](OCc2ccc(CO)cc2)C1
 : -2.0% | 11.6% | x | x | x | x | -3.1% | -20.6%

(further entries)
SMILES	SARS PLP yeast	RE007 growth inh	Cruzain inh Det	MARV entry inh	Cruzain noTriton	LASV entry inh	NS1 inh	StopGo reporter
O=C(O)c1ccc(Cl)c(S(=O)(=O)Nc2ccc3cn[nH]c3c2)c1	2.1%	21.2%	x	-9.8%[46.1 µM]	x	-8.6%	x	-12.0%
CCc1nc(Cl)c(C#N)c2c1CCCC2	3.98µM*	-6.2%	-2.5%	u	1.5%	17.2%[46.1 µM]	1.1%	-19.5%
Cc1oc(-c2cccs2)nc1CN1CCC(CO)(CCOc2ccccc2)CC1	-0.2%	-13.3%	x	-26.1%[46.1 µM]	x	-0.6%[46.1 µM]	-1.0%	u
C=CCN1C(=O)CSC1=Nc1ccc(NC(C)=O)cc1	2.4%	5.2%	x	x	x	x	4.6%	-4.7%
O=C(CN1C(=O)COc2ccc(S(=O)(=O)N3CCCCCC3)cc21)NCc1ccc(Cl)cc1	x	x	1.4%	x	0.8%	u	x	7.6%
Cc1ccc2c(c1)C(c1ccccc1)N(C(=O)c1ccc(S(=O)(=O)N3CCCC3)cc1)CC(=O)N2 (stereo not given)	x	x	-3.1%	-0.1%[46.1 µM]	14.0%	-26.4%[46.1 µM]	x	-10.7%
Cc1cc(C)cc(NC(=O)Cc2ccc(-n3cccc3)cc2)c1	3.3%	-0.7%	-1.0%	u	u	-9.2%	0.7%	-7.1%
O=C(CNc1ccc(Cl)c(C(F)(F)F)c1)N1CCN(S(=O)(=O)c2ccccc2)CC1	x	8.3%	x	-24.1%	x	u	x	-18.8%
O=C(CN(C(=O)c1csnn1)c1cccc2c1CCCC2)NCc1ccc(F)cc1	-0.4%	-7.2%	x	u	x	14.3%	17.4%	-6.2%
Cc1ccc(S(=O)(=O)NC2CCCC2)cc1C(N)=O	-0.5%	1.5%	x	x	x	x	8.4%	24.0%
CC1CN(c2ccc(Cl)cc2[N+](=O)[O-])CCN1S(C)(=O)=O (stereo not given)	0.1%	25.7%	x	u	x	-14.4%	-6.7%	0.0%
CCOC(=O)c1cnc2c(c(C3CC3)nn2C)c1N1CCOCC1	-0.7%	-0.5%	x	u	x	-6.5%	-7.6%	-13.8%
O=C(COC(=O)[C@H](Cc1ccccc1)NC(=O)c1cccs1)Nc1ccccc1C(F)(F)F	-5.9%	0.2%	-28.1%	-4.3%	2.5%	0.8%	-21.8%	-10.2%
COP(=O)(OC)c1nc(-c2ccccc2)oc1N1CCOCC1	0.5%	-11.1%	-1.2%	u	3.6%	7.0%	-2.2%	-3.6%
CCOC(=O)C(=O)N(Nc1ccc(C)cc1)c1ccc(C)cc1	-0.6%	-6.6%	x	u	x	4.6%[46.1 µM]	-9.6%	17.9%
Cc1ccc(N2C(=O)Nc3ccccc3C2(O)C(=O)NCCCOC(C)C)cc1C (stereo not given)	0.6%	15.7%	x	2.3%[46.1 µM]	x	-3.4%[46.1 µM]	6.1%	-10.8%
Cc1nc2nc(CC(=O)O)[nH]n2c(=O)c1[N+](=O)[O-]	0.2%	-4.3%	x	x	x	x	-0.3%	-10.7%
CCCNC(=O)COc1coc(CN2CCN(c3ccccc3)CC2)cc1=O	-0.3%	1.2%	x	x	x	x	-1.1%	-19.3%
CCOc1ccc(NC(=O)CSC2=Nc3ccccc3C3=NC(CC(=O)NCc4ccco4)C(=O)N23)cc1 (stereo not given)	x	x	-2.5%	x	-4.3%	20.7%[46.1 µM]	x	u
O=C(CNC(=O)c1ccccc1F)N/N=C/c1cc(Br)ccc1OC(=O)/C=C/c1ccco1	-8.4%	5.8%	-6.9%	u	u	u	29.8%	-16.6%
CCc1nnc(N/N=C/c2ccccc2Cl)n1N	-14.1%	-6.5%	-3.7%	4.4%	2.7%	u	-73.5%	x
CCOc1ccc(Nc2nc(-c3cccc(Cl)c3)c3c(n2)-c2ccccc2OC3)cc1	x	x	-4.6%	-0.8%[46.1 µM]	-0.9%	13.8%[46.1 µM]	x	-17.9%
CC(/C=N/NC(=O)c1ccncc1)=C\c1ccccc1	1.2%	1.5%	-8.0%	-6.4%	5.9%	-1.2%	-10.8%	x
Cc1ccc(NC(=O)CN2CCN(C(=O)c3ccco3)CC2)cc1	1.0%	3.7%	x	u	x	4.2%[46.1 µM]	-11.6%	16.1%
COc1cccc(-n2cc(C(=O)NCc3ccccc3OC)c3ccccc3c2=O)c1	x	x	-3.1%	x	2.3%	11.0%[46.1 µM]	x	-0.8%
Cc1ccc(C(=O)c2oc3ccccc3c2NC(=O)Cc2ccccc2)cc1	x	x	-0.5%	u	5.0%	u	x	13.5%
O=S(=O)(Nc1nc2ccccc2nc1-[n+]1cccc(N=C([O-])c2ccc(Cl)cc2)c1)c1ccccc1	0.6%	6.8%	x	u	x	u	5.9%	1.1%
O=C1NC(Cc2c[nH]c3ccccc23)C(=O)N1CCOc1ccccc1 (stereo not given)	-0.1%	0.9%	-10.9%	u	-5.3%	-25.3%	-11.4%	-17.7%
Cc1cc(-c2nnc(CCC(=O)N(C)Cc3cccc4ccccc34)o2)no1	1.0%	-16.7%	x	29.2%[46.1 µM]	x	-2.3%[46.1 µM]	-2.8%	23.1%
CC1(C)Cc2c(sc(N)c2C#N)C(C)(C)N1	1.1%	-2.2%	x	x	x	x	1.5%	9.7%
O=C(O)c1cc([N+](=O)[O-])c(N2CCCC2)c([N+](=O)[O-])c1	15.1%	0.3%	-8.1%	9.1%	-11.1%	19.2%	17.4%	-25.3%
COc1ccc(C(=O)N2CCC(n3nccc3NC(=O)C3CCOC3)CC2)cc1 (stereo not given)	10.9%	-0.4%	x	-4.2%	x	4.0%	2.9%	-12.8%
O=C(c1ccccc1Cl)N1CCN(CCc2ccccn2)CC1	x	x	-1.2%	-0.3%[46.1 µM]	-4.6%	18.8%[46.1 µM]	x	-12.9%
CCC(C(=O)N1CCN(C(=O)c2ccco2)CC1)n1sc2ccccc2c1=O (stereo not given)	-6.8%	5.3%	x	x	x	x	0.4%	-1.6%
O=C(N/N=C/c1cccs1)C(=O)N1CCCC1	-0.1%	9.5%	x	21.9%[46.1 µM]	x	1.2%	4.0%	16.4%
CCS(=O)(=O)c1ncc(Cl)c(C(=O)Nc2c(C(=O)Nc3cccc(C)c3)oc3ccccc23)n1	x	x	-2.3%	38.9%[46.1 µM]	-18.8%	u	x	-17.0%
C1CNC(C23CC4CC(CC(C4)C2)C3)=N1	1.1%	-11.9%	x	7.2%[46.1 µM]	x	7.5%[46.1 µM]	x	5.2%
COc1ccccc1Nc1nc(-c2ccc3c(c2)NC(=O)CO3)cs1	-2.5%	-0.2%	x	x	x	x	6.4%	u
Nc1nnc(-c2ccc(Cl)cc2)s1	-22.9%	-4.8%	-7.7%	6.6%	1.9%	19.6%	-30.4%	x
O=C(CCNC(=O)c1ccc(Cl)cc1)Nc1c(F)c(F)cc(F)c1F	-8.5%	26.1%	-3.2%	5.0%	-1.6%	-12.5%	7.2%	-5.4%
O=C(CSc1ccncc1)Nc1ccc(S(=O)(=O)Nc2nccs2)cc1	1.4%	-4.8%	x	x	x	x	6.0%	-0.4%
CCc1nc2ccccc2c(NC(=O)CN2CCC(C)CC2)c1C	5.5%	-13.7%	-11.2%	u	2.4%	-14.0%	-6.2%	0.0%

Compound profiles, as listed above. Order of screens: SARS PLP yeast	RE007 growth inh	Cruzain inh Det	MARV entry inh	Cruzain noTriton	LASV entry inh	NS1 inh	StopGo reporter
Nc1nnc(-c2ccc(Cl)cc2)s1 across the screens: -22.9%	-4.8%	-7.7%	6.6%	1.9%	19.6%	-30.4%	x
O=C(CSc1ccncc1)Nc1ccc(S(=O)(=O)Nc2nccs2)cc1 across the screens: 1.4%	-4.8%	x	x	x	x	6.0%	-0.4%
